BJeLR viability: kills HRASV12-expressing BJeLR cells | inhibition, % (no concentration beside the values) | 0.17% of 300,000 active | BJeLR (HRASV12) viability, CellTiter-Glo ATP luminescence, 48 h; reference of the scale not given here;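 active = replicate mean above 50%; inconclusive = above 50% but judged a plate artefact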;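 also: 50 nL library stock added to about 25 µL; numbers are from one replicate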
Mtb hypoxia rep: Mtb hypoxia fluorescent reporter inhibition | fluorescence inhibition, % (no concentration beside the values) | AID 1159583 | 0.1% of 300,000 active | M. tuberculosis hypoxia-regulated fluorescent reporter, fluorescence;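 active = 35 to 45% if threefold the growth effect, above 45% if 1.5-fold the growth effect; inactive = the rest, general growth blockers included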;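 also: wells of about 50 µL received 100 nL stock; 0% = vehicle wells and 100% = reference inhibitor wells; whole bacteria with a GFP reporter of the hypoxia response; strong numbers were not always called active; many hits fall short of the cut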
Bead autofluor: compound fluorescence in toxin protease inhibitor counterscreen. fluorescence intensity (no concentration beside the values). compound autofluorescence counterscreen, microsphere flow cytometry; stronger effect = higher value. 3.1% of 360,000 active;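 active = at least 3 SD above the mean of all compounds, about 16000 in these data; inconclusive = too few beads counted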;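 also: 100 nL of 1 mM stock went into each well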
PrP 5UTR inh: suppresses PrP 5' UTR mRNA reporter expression. cell-based PrP 5' UTR mRNA reporter, plate reader. 0.35% of 340,000 active. inhibition, % (test concentration not listed). AID 488862;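 active = every replicate at 50% or more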;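 also: 0 = median of the neutral control wells; tested in H4 reporter cells; numbers are from one replicate; inactives centre near -14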
ugtP null kill: kills S. aureus RN4220 lacking UgtP; S. aureus RN4220 ugtP deletion, OD600 growth, 16 h; some inactives read as strong as hits; growth inhibition, % (concentration not given with the values); 0.54% of 330,000 active;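 active = z-score under -3 and OD600 up to 0.15 on both plates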;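 also: plate controls were untreated wells for no effect and antibiotic for full effect; wells of about 80 µL received 100 nL stock; the first replicate is given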
Sa RN4220 lethal: S. aureus RN4220 growth inhibition | OD600, 16 h | inhibition, % (concentration not given with the values) | 0.33% of 330,000 active;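 active = z-score of -3 or lower and OD600 up to 0.18 on both plates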;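 also: plate controls were untreated cells for no effect and reference antibiotic for full effect; stock transfer was 100 nL into about 80 µL; one replicate is shown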
Mtb hypoxia rep growth: further read-out of Mtb hypoxia rep, marked with its call; growth inhibition, %; measured here: M. tuberculosis growth (absorbance);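 0% = vehicle and 100% = reference antibiotic; read after six days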
The depositor's hits bear a star; ? = inconclusive; / = not tested or not shown; & = joins results of further samples.

Values in the order – BJeLR viability, Mtb hypoxia rep, Mtb hypoxia rep growth, Bead autofluor, PrP 5UTR inh, ugtP null kill, Sa RN4220 lethal
> C=CC1=C2C=C(C3CC3)N(CC3CC3)C=C2C(=O)C(C)(OC(=O)c2ccco2)C1=O (configuration not stated)
    -3, 7, 6, 3259, -7, -5, 4.1
> O=C(N1CCOCC1)N1CCN(c2ccccc2)CC1
    -18, -6, -9, 2878, -4, 7, 4.4
> Clc1cccc(-c2nc(NCCCN3CCOCC3)c3ccccc3n2)c1
    5, -7, 15, 3879, -13, -13, -5.2
> CCC(=O)N1CCN(c2ccc(NC(=O)COc3ccccc3Cl)cc2)CC1
    6, 8, 10, 10584, /, 3, 4.2
> Cc1cc2oc(=O)cc(CN3CCN(Cc4ccccc4)CC3)c2cc1Cl
    0, -2, 6, 5201, -10, -4, -8.0
> COc1ccc(S(=O)(=O)Nc2cccc(N(C)S(C)(=O)=O)c2)cc1Br
    9, 3, -4, 7265, -13, 0, 7.7
> O=C(O)c1ccc(Oc2ccc([N+](=O)[O-])cc2)c([N+](=O)[O-])c1
    /, -2, 10, 3536, 5, 0, 0.4
> COc1cc(OC)cc(C2(C#N)CCN(C)CC2)c1
    -6, 8, 1, 4724, -9, -3, 6.7
> CCOCCn1c(CN2CCC(Cc3ccccc3)CC2)nc2c1c(=O)n(C)c(=O)n2C
    -1, -1, 3, 11127, -33, 5, 0.7
> COc1ccc(C)cc1NC(=O)c1[nH]c(C)c(C(C)=O)c1C
    4, -1, 7, 6059, -15, -3, 4.1
> COCCNC(=O)Cn1c(=O)n(CCCC(=O)NCc2ccc3c(c2)OCO3)c(=O)c2sccc21
    -5, 1, 10, 3929, -3, 5, 1.5
> Cc1cc(C(=O)OCc2nc3ccccc3s2)c(C)o1
    12, 3, 12, 3153, -51, -8, 0.8
> CC(C)CNC(=O)c1ccc2c(c1)C(=O)N(Cc1ccco1)C2=O
    10, 1, 7, 3807, -24, 10, 2.1
> Cc1nn(Cc2ccccc2Cl)c2sc(C(=O)Nc3ccccc3N3CCOCC3)cc12
    0, 4, 0, 2531, -5, -23, -6.5
> Oc1ccc(Cl)cc1C1=NNC(c2cc(Br)cc3c2OCOC3)C1 (configuration not stated)
    -5, 4, 0, 4023, 2, -3, -2.1

Complete entries as entered above. Order of values: BJeLR viability	Mtb hypoxia rep	Mtb hypoxia rep growth	Bead autofluor	PrP 5UTR inh	ugtP null kill	Sa RN4220 lethal
Results for Cc1cc(C(=O)OCc2nc3ccccc3s2)c(C)o1 : 12	3	12	3153	-51	-8	0.8
Results for Oc1ccc(Cl)cc1C1=NNC(c2cc(Br)cc3c2OCOC3)C1 (configuration not stated) : -5	4	0	4023	2	-3	-2.1
Results for COc1ccc(C)cc1NC(=O)c1[nH]c(C)c(C(C)=O)c1C : 4	-1	7	6059	-15	-3	4.1
Results for CCOCCn1c(CN2CCC(Cc3ccccc3)CC2)nc2c1c(=O)n(C)c(=O)n2C : -1	-1	3	11127	-33	5	0.7
Results for COc1ccc(S(=O)(=O)Nc2cccc(N(C)S(C)(=O)=O)c2)cc1Br : 9	3	-4	7265	-13	0	7.7

Next section
Values in the order – BJeLR viability, Mtb hypoxia rep, Mtb hypoxia rep growth, Bead autofluor, PrP 5UTR inh, ugtP null kill, Sa RN4220 lethal
> COCCn1c(SCC(=O)NC(C)c2ccc(F)cc2)nc2ccccc21 (configuration not stated)
    -3, -3, -9, 3048, -12, 1, 3.2
> Cc1cccc(NC(=S)NC2CC3CCC(C2)N3Cc2ccco2)c1C (configuration not stated)
    5, 5, 3, 12768, -21, 6, 4.5
> CC(=O)Nc1ccc(S(=O)(=O)NCCC(=O)Nc2ccc(C)c(F)c2)cc1
    3, -10, -10, 3042, -11, 1, 5.2
> Nc1nc(-c2ccccc2)cn1N=Cc1ccccc1
    /, 5, 0, /, /, -17, 0.4
> Cc1cc(C)nc(N(C#N)CCOc2ccccc2)n1
    16, /, /, 3556, -11, 12, 4.0
> Cc1c(Cc2c(C)n(C)n(-c3ccccc3)c2=O)c(=O)n(-c2ccccc2)n1C
    -1, -4, 0, 1991, -22, 6, 2.8
> COc1ccc(/C=C2\SC(=S)N(CCC(=O)Nc3cccc(C(=O)O)c3)C2=O)cc1
    3, 5, 5, 3878, -13, 0, 12
> CCOC(=O)CNC(=O)c1ccc2[nH]c3c(c2c1)CCCC3
    -11, 11, 4, 7463, -6, -3, 0.0
> CCC(C)C(NC(=O)CCC(=O)OCC(=O)[C@@]1(O)CCC2[C@@H]3CCC4=CC(=O)C=C[C@]4(C)C3[C@@H](O)C[C@@]21C)C(=O)O (some centres not stated)
    -12, 6, 0, 3703, -10, -3, 13
> CCOC(=O)C1CCCN(C(=O)Nc2cccc(Cl)c2)C1 (configuration not stated)
    -3, 13, 3, 5743, -61, -2, 1.9
> Cc1ccc(Nc2nc(-c3sc(C)nc3C)cs2)cc1
    27, 9, 7, /, 8, -18, -8.1
> C[C@H](NC(=O)c1nc[nH]c1C(=O)N[C@@H](Cc1ccccc1)C(=O)OCc1ccccc1)C(=O)OC(C)(C)C
    3, /, /, 4103, -3, /, /
> CCCn1nc(C(=O)Oc2ccc3c(C)cc(=O)oc3c2)c2ccccc2c1=O
    5, 7, 7, 7940, -16, -2, 2.1
> COc1ccc(Nc2nc(NN)nc(Nc3ccc(OC)cc3)n2)cc1
    -9, 2, 11, 2763, -7, -9, 5.7
> CCN(CC)CCNC(=O)c1ccc(NC(=O)/C=C/c2cc(OC)c(OC)c(OC)c2)cc1
    6, 6, -2, 2296, -28, 6, 2.4
> O=C(Nc1ccnn1C1CCN(C/C=C/c2ccccc2)CC1)c1ccccc1
    2, 7, 8, 6386, -3, 0, 2.5
> CCOC(=O)C1=Nc2ccccc2C1=[N+]=[N-]
    -5, /, /, 2306, -17, /, /
> O=C1c2ccccc2C(=O)N1CCn1c(=O)oc2ccccc21
    -8, 0, -3, 8690, -44, -1, 0.1
> CCOC(=O)N1CCC(N2Cc3cccc(C(=O)Nc4ccc(S(=O)(=O)N(CC)CC)cc4)c3C2=O)CC1
    10, 2, 0, 5983, -7, 3, 4.3
> CCOc1ccc(S(=O)(=O)NCCC(=O)Nc2ncccc2C)cc1
    5, -1, 13, 6200, -6, 0, 2.2
> O=C(NN=Cc1ccco1)c1ccn[nH]1
    /, 9, 2, /, /, 5, -0.5
> Cc1ccc(S(=O)(=O)NCCNC(=O)c2ccccc2)cc1
    5, 20, 5, 2348, -9, -4, -5.2
> CCOc1ccc(S(=O)(=O)Nc2ccc(C(=O)NCc3ccncc3)cc2)cc1
    /, -1, -4, 4294, -7, 0, -1.5
> O=C(NCC(=O)N1CCCC(C(F)(F)F)C1)c1ccccc1F (configuration not stated)
    -5, -3, 1, 4710, -27, 5, -0.8
> CC(=O)Nc1ccc(NC(=O)c2ccc(COc3ccc(C)cc3)o2)cc1
    0, -4, 2, 3441, -36, -2, 4.8
> O=C(NN=Cc1ccc([N+](=O)[O-])cc1)c1cccnc1
    /, -7, 0, /, /, -2, -4.1
> CCOc1ccccc1OCCCCOc1ccccc1F
    1, 8, 6, 2528, -9, 31, 7.8
> COc1ccc(C(=O)Nc2c(Cl)cc(Cl)cc2C(=O)NCCN2CCOCC2)cc1
    3, 8, 8, 21881*, -7, -6, -1.8
> Cn1ccsc1=NC(=O)c1cc(S(=O)(=O)N2CCOCC2)ccc1Cl
    -5, 9, -7, ?, -2, 0, 3.0
> Cc1c(N2C(=O)c3ccc(F)cc3C2=O)c(=O)n(-c2ccccc2)n1C
    -12, 1, 9, 10369, -17, -4, 1.8
> CC(CC(=O)c1ccccc1)=NNC(=O)CC#N
    /, 0, -3, /, /, 3, 5.7
> CC(=O)C(=NNc1ccc(Cl)cc1Cl)Sc1nnc(-c2ccccc2)n1-c1ccccc1
    /, 6, 1, /, /, 0, -1.2
> O=C(N/N=C/c1ccc(C(F)(F)F)cc1)c1ccncc1
    -7, /, /, 3965, -45, /, /
> Cc1cc(NC(=O)C2CC(=O)N(c3ccccc3Cl)C2)no1 (configuration not stated)
    1, 5, 9, 5669, -8, 12, -1.8
> CCOCC(=O)N1CCN(c2cccc(Cl)c2)CC1
    -7, 14, 6, 5066, -10, 3, 3.9
> NC(=NOCc1cccc([N+](=O)[O-])c1)c1nonc1N
    /, 3, 1, /, /, 10, 4.5
> O=C(CSc1nc(-c2ccccc2)cs1)NCCCN1CCCC1=O
    /, -1, 7, 3855, -23, -2, -4.6
> O=C(Nc1nnc(-c2ccc(Cl)cc2)o1)C1CCCCC1
    -3, -1, -7, 5024, -12, 12, 0.5
> COC(=O)c1c(NC(=O)c2ccccc2)sc2c1CC(C)(C)OC2
    -3, 7, 7, 16350*, -25, -18, -0.1
> Cc1ccc(Nc2c3c(nc4ccccc24)CCC3)cc1
    14, 11, 20, /, -5, -11, -3.5
> Cn1c2c(c(=O)n(C)c1=O)C(C(F)(F)F)(C(F)(F)F)N=C(c1ccccc1Cl)N2
    -1, 2, -1, 9376, -16, -5, 4.7
> CCCSc1nn2c(=O)c3ccccc3nc2s1
    -2, /, /, 2827, -69, -15, -6.7
> Cc1c(C(c2cccc(O)c2)c2c(C)n(C)n(-c3ccccc3)c2=O)c(=O)n(-c2ccccc2)n1C
    -4, -5, 1, 9563, -1, 4, -0.2
> N#Cc1c(SCC(=O)Nc2ccccc2C(F)(F)F)sc2c(O)cc(=O)[nH]c12
    3, -4, 0, 3769, -19, 5, 4.6
> CCCCN(CC)C(=O)c1cc2cc3ccc(OC)cc3nc2o1
    -2, 24, 1, 3483, -69, -5, -0.8
> CCCC(=O)Nc1ccc(S(=O)(=O)Nc2cc(OC)nc(OC)n2)cc1
    3, 7, 0, 4283, -39, 1, 4.1
> Cc1ccc(C(=O)NCCc2csc(-c3cccnc3)n2)cc1
    -3, -5, -1, 5534, -17, -2, -4.1
> Cc1cc(C)nc(NS(=O)(=O)c2ccc(NC(=O)CSc3nc(-c4ccccc4)c(C#N)c(=O)[nH]3)cc2)n1
    -2, 7, 2, 4524, -36, 12, 6.4
> S=c1[nH]nc(Cc2noc3ccccc23)n1-c1ccc(Cl)cc1
    3, 5, 6, 4513, -8, 6, 2.1
> O=C(O)C1CCN(c2ccc(S(=O)(=O)N3CCC(C(=O)O)CC3)cc2[N+](=O)[O-])CC1
    11, -2, -11, 4999, -12, -3, -4.3
> NC1=NCC(Cc2ccc(O)cc2)N1CC1CCCCC1 (configuration not stated)
    /, 1&5, 1&5, /, /, -5&4, -3.4&4.1
> O=C(NCC(=O)N(c1cccnc1)C(C(=O)NC1CCCC1)c1ccc(F)cc1)c1ccco1 (configuration not stated)
    -10, 10, -6, /, /, 1, 2.5
> COC(=O)[C@H](CCSC)NC(=O)c1cccnc1SC
    -4, 15, 7, 4329, -18, 1, 1.8

Only ugtP null kill, for three of the compounds above:
| mol | ugtP null kill |
| --- | --- |
| O=C(NCC(=O)N(c1cccnc1)C(C(=O)NC1CCCC1)c1ccc(F)cc1)c1ccco1 (configuration not stated) | 1 |
| S=c1[nH]nc(Cc2noc3ccccc23)n1-c1ccc(Cl)cc1 | 6 |
| NC1=NCC(Cc2ccc(O)cc2)N1CC1CCCCC1 (configuration not stated) | -5&4 |

Compound activity: PubChem, several laboratories
